GLA inh pH 4.5 – qHTS Assay for Inhibitors of Human alpha-Galactosidase at pH 4.5. activity change, negative = inhibition, % at 105 µM. AID 1467, 2008. 230,000 tested, under 10 active. purified enzyme, 4-MU-alpha-Gal fluorescence, pH 4.5; inconclusive = small, poorly fitted or top-dose-only inhibition, or a rising curve; inactive = flat fitted curve, though single readings scatter; no compound was filed as active;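 note: 0% = full activity with enzyme and -100% = basal without enzyme; dose as in the result columns while the protocol names 77 µM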
Target sequence (P06280 whole entry, looked up): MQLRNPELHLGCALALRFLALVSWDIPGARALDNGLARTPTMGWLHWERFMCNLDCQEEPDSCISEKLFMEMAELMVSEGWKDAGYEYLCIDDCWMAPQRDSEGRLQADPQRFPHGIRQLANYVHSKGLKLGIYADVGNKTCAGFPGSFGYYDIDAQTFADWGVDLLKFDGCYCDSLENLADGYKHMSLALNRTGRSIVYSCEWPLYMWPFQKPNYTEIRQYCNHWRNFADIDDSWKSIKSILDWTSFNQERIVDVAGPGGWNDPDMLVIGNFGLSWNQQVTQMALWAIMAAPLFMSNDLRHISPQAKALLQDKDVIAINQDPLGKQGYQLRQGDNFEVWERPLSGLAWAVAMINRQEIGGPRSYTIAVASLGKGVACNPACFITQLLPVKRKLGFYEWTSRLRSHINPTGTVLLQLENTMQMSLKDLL
Rango complex inh – qHTS Assay for Inhibitors of Rango (Ran-regulated importin-beta cargo) - Importin beta complex formation; Importin subunit beta-1 (Homo sapiens), Q14974; Rango CFP/YFP FRET sensor + importin beta, 45 min; Potency, µM (top dose mostly 92.2 µM), for the others: at the top dose inhibition of complex formation; 340,000 compounds, 0.031% hits; AID 540263, 2011; active = rising FRET ratio curve, often small or poorly fitted; inconclusive = mostly compound fluorescence or quenching in the first reads; inactive = flat curves in all reads;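 note: potency is the fitted concentration of half-maximal effect; 0% = DMSO wells and 100% = buffer wells lacking importin beta; nearly all actives have a fitted effect of over 15% in size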
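FRET biosensor (snurportin 1 IBB flanked by EYFP and cerulean), 50 nM, with compound 5 min, then 0.125 microM importin beta in PBS, 1 mM DTT, 0.02% Tween-20, 0.1% BSA. CFP/YFP ratio read after 45 min at room temperature; pre-read flags interference.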
Rango release inh – qHTS Assay for Inhibitors of RanGTP induced Rango (Ran-regulated importin-beta cargo) - Importin beta complex dissociation; Biochemical FRET Rango-importin beta, RanGTP-induced dissociation; Snurportin-1 (Homo sapiens) + GTP-binding nuclear protein Ran (Homo sapiens) + Importin …; 340,000 compounds, 0.071% hits; Potency, µM (top dose mostly 46.1 µM), for the others: at the top dose activity change, negative = inhibition; active means falling FRET ratio curve, often poorly fitted, with flat reads before Ran was added; inconclusive means other falling curves, or compound fluorescence or quenching; inactive means flat or rising ratio curve;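 note: potency is the fitted concentration of half-maximal effect; % of control where 0% means no effect; nearly all actives have a fitted effect of over 45% in size; -100% = wells without RanGTP and RCC1; the record marks most hits as doubtful in a second field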
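FRET read at 45 min, room temperature: inhibitors block the CFP/YFP signal rise when RanGTP (0.6 uM Ran, 2 mM GTP, 0.2 uM RCC1) frees Rango (0.1 uM) from importin beta (0.25 uM). Pre-read after 5 min compound exposure flags interference.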
miR-21 reporter – qHTS Assay for Modulators of miRNAs and/orActivators of miR-21 | AID 2288, 2010 | Potency, µM (doses to about 38.3 µM), for inactives: at the top dose reporter change, positive = more light | 340,000 tested, under 10 active | HeLa miR-21 FLuc reporter, luciferase, 48 h; active = well fitted rising curve with a large enough effect; inconclusive = small, poorly fitted or top-dose-only effect; inactive = no such curve, though single readings can be large or run the other way;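 note: % of control where 0% means no effect; miR-21 action dims this reporter so a rising signal means less miR-21 action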
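HeLa miR-21-FLuc reporter line, endogenous miR-21; 2000 cells/well in DMEM/10% FBS; compound titration up to ~40uM final, 48 h, 37 degree Celsius; luciferase detection reagent, 15 min lysis, CCD luminescence.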
Active calls of the source: *; ? = inconclusive; / = not tested or not shown; & = joins results of further samples. This is a subset; rates above refer to the full screens.

SMILES	GLA inh pH 4.5	Rango complex inh	Rango release inh	miR-21 reporter
CCOc1ccc(CCNC(=O)COC(=O)CNS(=O)(=O)c2ccc(NC(C)=O)cc2)cc1OCC	/	1.6%	0.5%	/
O=C(O)CC(CC(=O)Nc1ccc(C(=O)O)cc1)c1ccccc1 (stereo unspecified)	-12.5	0.2%	-1.3%	-1.2%
CCC(=O)NC(c1ccccc1Cl)c1c(O)ccc2ccccc12 (stereo unspecified)	5.2	-0.4%	9.1%	-3.8%
Nn1c(SCc2nc3ccccc3[nH]2)nnc1-c1cccnc1	6.7	-0.8%	5.8%	-4.8%
O=C(Nc1cc([N+](=O)[O-])ccc1N1CCCC1)c1cccs1	/	3.7%	-2.2%	3.0%
CN(C)C(=O)Cn1c(SCC(=O)Nc2ccc3c(c2)OCO3)nc2ccccc21	-9.1	4.5%	4.5%	0.1%
Cc1cccc(CN2CCC(C(=O)Nc3ccc(Oc4cccnc4)cc3)CC2)c1	/	8.0%	-16.7%	11.2%
COc1ccc(OC)c(NC(=O)c2cc(OC(C)=O)cc(C(=O)Nc3cc(OC)ccc3OC)c2)c1	/	2.1%	-7.4%	27.8%
CC(C)C(=O)N1CCC(CN=Cc2c(O)n(C3CCCCC3)c(=O)n(C3CCCCC3)c2=O)CC1	-11.1	0.3%	-14.8%	3.8%
Cc1cccc(C)c1NC(=O)COC(=O)CSc1nnc(N)s1	5.4	-1.1%	-1.4%	-1.0%
CC(=O)C(Cc1ccccc1)NC(=O)CN1CCc2ccccc2C1 (stereo unspecified)	-6.9	-4.3%	0.9%	-3.3%
COc1cc2[nH]c(=O)n(CCC(=O)N3CCN(c4cccc(C)c4C)CC3)c(=O)c2cc1OC	2.2	4.9%	14.7%	-7.7%
CC(=O)N1CCN(c2ccc(N)cc2)CC1	/	3.3%	-0.9%	/
O=C(c1ccccc1F)N(Cc1nc2ccccc2c(=O)[nH]1)C1CCCC1	-2.5	-0.3%	1.1%	2.5%
CCCCN(C(=O)c1c(-c2ccccc2)noc1C)c1c(N)n(CCC)c(=O)[nH]c1=O	/	0.1%	-6.4%	/
COc1ccc(CN(CC(=O)NCc2ccc(F)cc2)C(=O)c2csnn2)cc1	/	-3.3%	-5.5%	0.9%
Cc1ccc(S(=O)(=O)c2nc(S(C)(=O)=O)sc2N2CCCC2)cc1	/	-2.8%	-12.8%	-0.6%
O=C(NC1CCCCC1NC(=O)c1cccs1)c1cccs1 (stereo unspecified)	-5.0	0.5%	5.9%	-0.4%
Cc1ccc(CNC(=O)Cn2cncn2)cc1	-4.4	?	-12.0%	-0.4%
O=C1[C@H](c2ccccc2)[C@@H](c2ccccc2)N1c1ccncc1	/	-1.6%	-6.6%	/
CCSCc1nnc(SCC(=O)Nc2cccc(SC)c2)n1C	-1.5	-4.1%	24.9%	2.6%
Cc1c(C(=O)N2CCCC2)oc2c1-c1nn(CC(=O)NCCCOC(C)C)cc1CC2	/	-2.3%	-1.8%	1.8%&-0.2%
CCOc1ccc(C(=O)NCC(=O)Nc2ccc(N3CCOCC3)cc2)cc1OCC	3.3	2.6%	22.6%	-38.7%
Cc1nc(-c2ccccc2)nc2[nH]c(C(C)C)cc(=O)c12	2.5	-2.9%	-8.2%	14.5%
COC(=O)[C@H]1C[C@H]1[C@@H](NC(=O)c1ccc[nH]1)c1ccccc1	/	0.7%	1.6%	/

Additional entries follow.
SMILES	GLA inh pH 4.5	Rango complex inh	Rango release inh	miR-21 reporter
COc1ccccc1CNC(=O)COC(=O)C1CC1	/	-1.0%	11.9%	/
CCOCCCNC(=O)C1(O)c2ccccc2NC(=O)N1c1ccc(C)c(C)c1 (stereo unspecified)	/	0.5%	2.2%	-0.3%
COc1ccc(C(=O)Cc2nnc(C)s2)c(OC)c1	-12.8	0.4%	-2.7%	-42.7%
O=C(CN1C(=O)C2C3CCC(C3)C2C1=O)OCC(=O)c1ccccc1 (stereo unspecified)	/	-0.5%	-13.6%	0.8%
O=C(CS(=O)(=O)c1cn(CC(=O)N2CCCC2)c2ccccc12)Nc1ccccc1	/	1.2%	0.6%	-10.0%
Nc1c(C(=O)Nc2ccc3c(c2)OCCO3)nnn1Cc1ccc(F)cc1	/	4.4%	3.4%	/
Cc1cc(NC(=O)CN2C(=O)NC3(CCC(C)CC3)C2=O)no1 (stereo unspecified)	2.3	?	3.4%	1.5%
Nc1nccc(/C=C/c2c(F)cccc2Cl)n1	8.2	?	?	-49.7%
Cc1c(/C(O)=C2/C(=O)C(=O)N(CCN3CCOCC3)C2c2ccccn2)cnn1-c1ccccc1 (stereo unspecified)	-0.5	?	?	0.1%
CCOc1ccc(C(=O)Cn2cnnc2C#N)cc1	/	-1.4%	-3.4%	-4.5%
COc1cc(/C=C2\C(C)=C(C#N)c3nc(N)c(C#N)c(C)c32)ccc1OCC(=O)O	?	?	?	-9.0%
c1ccc(C2Nc3cccc4cccc(c34)N2)cc1	/	0.9%	6.8%	5.0%
COc1ccc(-c2nnc(NC(=O)C(C)C)o2)cc1	-5.6	-1.9%	14.3%	-15.1%
Cc1ccc(CNC(=O)Cn2cnc(S(=O)(=O)N3CCCCC3)c2)o1	/	-4.8%	-4.8%	-0.9%
O=C(N1CCCC1)C12CC3CC(C1)CC(C(=O)N1CCCC1)(C3)C2	-4.0	-1.6%	?	4.4%
S=c1[nH]nc(CSc2nc3ccccc3s2)n1Cc1ccccc1	6.7	?	-0.9%	-1.3%
O=C(CCNC(=O)c1ccccc1Cl)NCC1CCCO1 (stereo unspecified)	/	-0.4%	20.8%	/
COc1ccc(C2c3ccsc3CCN2C(C)=O)cc1 (stereo unspecified)	-6.3	1.0%	-10.2%	-20.0%
N#CC1=C(N)N(c2ccc(Oc3ccccc3)cc2)C(=O)C1	-6.0	-0.9%	0.1%	-0.7%
O=C(CSc1nnc(Cc2cccs2)n1C1CCCCC1)N1CCCc2ccccc21	-8.6	1.0%	7.9%	21.3%
COC(=O)c1cc(S(=O)(=O)N2CCN(c3ccccc3F)CC2)c[nH]1	/	0.8%	-6.6%	10.5%
O=c1oc(CCO)cc2ccc(-c3ccc4[nH]ccc4c3)cc12	/	-2.3%	1.1%	/
O=C(N/C(=C/c1ccc(Cl)cc1)C(=O)N1CCCC1)c1ccccc1	0.6	8.2%	-24.0%	-6.2%
COc1ccc(C(=O)N2CC(=O)Nc3ccc(C)cc3C2c2ccccc2)cc1 (stereo unspecified)	/	7.1%	-4.8%	-1.1%
Cc1cc(F)ccc1S(=O)(=O)N1CCCOC1CNC(=O)C(=O)NC1CCCC1 (stereo unspecified)	/	1.7%	1.1%	-4.2%

(continued)
SMILES	GLA inh pH 4.5	Rango complex inh	Rango release inh	miR-21 reporter
O=C(CN1C(=O)C2CC=CCC2C1=O)Nc1ccccc1N1CCCC1 (stereo unspecified)	/	-1.1%	-9.9%	/
CCOc1ccc(N2C(=O)CSC23CCCCC3)cc1	3.7	1.1%	15.6%	0.5%
CCC(=O)NCCNc1ccc([N+](=O)[O-])cn1	-4.2	/	/	1.0%
CC(C)(C)S(=O)c1cccs1 (stereo unspecified)	1.6	1.4%	-3.1%	1.4%
Cc1ccc(CNC(=O)Nc2ccc3c(c2)N(C)C(=O)CS3)cc1	-1.8	-1.5%	-3.0%	14.8%
Cc1c(-c2ccccc2)cn2c1-c1ccc(C)n1CC2	5.6	?	?	-3.3%
CC1(C)CC(=O)c2cnc(N3CCN(c4ccccc4)CC3)nc2C1	-8.7	-1.4%	0.8%	-7.0%
CCN1CNC(=S)N(c2ccccc2OC)C1	5.4	3.7%	-3.9%	-1.4%
CCOC(=O)c1c(NC(=O)CN2CCN(c3cccc(Cl)c3)CC2)sc(C)c1C	/	-0.1%	27.6%	/
Cc1onc(-c2ccccc2)c1C(=O)n1nnc2ccccc21	4.0	3.0%	8.6%	-9.4%
O=C1COc2ccc(S(=O)(=O)N3CCCCC3)cc2N1	/	-0.1%	-7.7%	-1.9%
CC(OC(=O)c1cc(=O)[nH]c2ccccc12)C(=O)NC1CCCC1 (stereo unspecified)	/	0.8%	6.4%	/
C=C1CCC2C(C)(C)[C@H](O)CC[C@@]2(C)[C@@H]1COc1cc(=O)oc2ccccc12 (stereo partly specified)	4.2	4.4%	-1.8%	12.4%
CCN1/C(=C/c2ccc3ccc(C)cc3[n+]2CC)Sc2ccccc21	3.0	11.4%	3.7%	?
O=C(O)COc1ccccc1/C=N/NC(=O)CSc1nc2ccccc2n1Cc1ccccc1Cl	-4.8	-0.9%	-8.1%	-18.1%
CCCOC(=O)c1ccc(NC(=O)CN(C)Cc2cccs2)cc1	/	2.0%	12.3%	-10.8%
CCCc1cc(=O)oc2c(C)c(OC(C)C(=O)NCC(O)c3ccccc3)ccc12 (stereo unspecified)	/	-4.5%	-0.1%	-0.1%
COc1cccc(C(CNC(=O)C2CCN(C(=O)Nc3ccccc3)CC2)N(C)C)c1 (stereo unspecified)	/	-1.7%	0.5%	/
CC(=O)Nc1ccc(NC(=O)CSc2nc(=O)n(Cc3cccnc3)c3c2CCC3)cc1	/	-3.7%	0.7%	/
N#CCSc1ccccc1NC(=O)COC(=O)CCN1C(=O)C2CC=CCC2C1=O (stereo unspecified)	/	-2.9%	30.9%	/
COc1ccc(C(=O)C(OC(=O)c2ccccc2)c2ccccc2)cc1 (stereo unspecified)	-0.2	-4.6%	3.8%	-55.5%
Brc1cc2c(cc1/C=N/Nc1nc3ccccc3s1)OCO2	-10.8	4.7%	-11.2%	-42.6%
COc1ccc(NC(=O)CSc2nnc(N)s2)cc1	8.9	-0.6%	7.4%	-15.3%&-12.2%
CCCC1=Nc2cc(C(=O)N3CCCC3)ccc2Sc2ccc(C)cc21	/	-0.1%	1.3%	-7.2%
CCn1c(CN2CCOCC2)nnc1SCC(=O)Nc1ccc(C)cc1	/	1.8%	9.6%	-1.5%

Shown in markdown: four of the compounds above
| Molecule | GLA inh pH 4.5 | Rango complex inh | Rango release inh | miR-21 reporter |
| --- | --- | --- | --- | --- |
| CCCc1cc(=O)oc2c(C)c(OC(C)C(=O)NCC(O)c3ccccc3)ccc12 (stereo unspecified) | / | -4.5% | -0.1% | -0.1% |
| COc1cccc(C(CNC(=O)C2CCN(C(=O)Nc3ccccc3)CC2)N(C)C)c1 (stereo unspecified) | / | -1.7% | 0.5% | / |
| CC(=O)Nc1ccc(NC(=O)CSc2nc(=O)n(Cc3cccnc3)c3c2CCC3)cc1 | / | -3.7% | 0.7% | / |
| N#CCSc1ccccc1NC(=O)COC(=O)CCN1C(=O)C2CC=CCC2C1=O (stereo unspecified) | / | -2.9% | 30.9% | / |

Returning to the listing; the two compounds before the break are reprinted first.
SMILES	GLA inh pH 4.5	Rango complex inh	Rango release inh	miR-21 reporter
CCCC1=Nc2cc(C(=O)N3CCCC3)ccc2Sc2ccc(C)cc21	/	-0.1%	1.3%	-7.2%
CCn1c(CN2CCOCC2)nnc1SCC(=O)Nc1ccc(C)cc1	/	1.8%	9.6%	-1.5%
CC(Oc1ccc(C(=O)c2ccccc2)cc1)C(=O)N1CCOCC1 (stereo unspecified)	/	6.7%	-3.4%	/
NC(=S)Nc1cccc(O)c1	-4.8	-2.2%	-12.6%	-0.2%
O=C1c2cc(Br)ccc2N(Cc2ccc(Br)cc2)S(=O)(=O)C1c1cc(Cl)c(Cl)cc1[N+](=O)[O-] (stereo unspecified)	/	-2.5%	-8.1%	/
N#Cc1c(-c2ccc(F)cc2)cc(C2CC2)nc1SCC(=O)c1cccs1	-2.9	?	?	-4.8%
CCN(CC(=O)NCc1cccs1)C(=O)c1ccc(C)o1	/	-0.2%	-7.4%	/
COc1cc(NC(=O)COC(=O)CC(NC(C)=O)c2ccccc2)cc(OC)c1 (stereo unspecified)	/	-2.2%	-4.4%	3.7%
CN(C)CCCn1c2c(c(SCC(=O)Nc3ccc4c(c3)OCO4)nc1=O)CCC2	/	-0.3%	11.4%	/
CC(=O)NCCC(=O)N1CCCC(N(C)CCc2ccccc2)C1 (stereo unspecified)	/	0.1%	?	-0.2%
COc1ccc2oc(-c3ccccc3)c(C(=O)N(C)C)c2c1	/	6.5%	0.1%	1.6%

Screening data: PubChem, National Center for Advancing Translational Sciences (NCATS)
